High-throughput results as filed in PubChem.
Bfl-1 A1 inh – inhibitors of the anti-apoptotic protein A1, read as caspase activation; hit rate 0.066% among 330,000; AID 2462; MEF A1-2A-BIM cells, Caspase-Glo 3/7 luminescence, 3 h; percent of clofoctol response, vehicle zero; caspase activation, % (concentration not given with the values);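 active = over half of replicate activation scores above 10%, or exactly half above 10 with the replicate mean above 10; inconclusive = replicate mean below 10 yet half the replicates above 10; inactive = over half of replicates below 10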;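 also: wells of about 30 µL received 50 nL stock; many hits fall short of the cut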
T cruzi inh – blocks replication of Trypanosoma cruzi | T. cruzi beta-gal in NIH3T3, luminescence, 90 h | inhibition, % (test concentration not listed) | hit rate 1.4% among 300,000;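 active = mean inhibition across valid replicates above about 55%, limit read from the data; inconclusive = mean below that limit but half or more replicates reach it; inactive = mean below it, under half of replicates reach it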;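 also: signal also drops with host cell toxicity which is not excluded here; 0% = plate median of DMSO wells and 100% = zero luminescence signal; higher percent means less beta-gal luminescence so fewer parasites; stock transfer was 50 nL into about 50 µL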
Beta apoptosis – blocks beta cell apoptosis. AID 435005. INS-1E cytokine-induced death, ATP luminescence, 48 h; percent of positive-control rescue, neutral wells zero. hit rate 0.8% among 300,000. protection from apoptosis, % (no concentration beside the values);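 active = all replicates at 75% or more, or half of them and the mean; inconclusive = half reach 75% but not the mean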;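 also: 0% = cytokine-treated negative control wells and 100% = positive control rescue; higher means more ATP so stronger rescue from cytokine killing; wells of about 40 µL received 100 nL stock; the first replicate is given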
ALR inh – blocks human ALR sulfhydryl oxidase activity. P55789. purified ALR, DTT oxidation, H2O2 HRP-luminol luminescence. inhibition, % (test concentration not listed). hit rate 3.8% among 290,000. AID 485317;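 active = mean and each replicate at 75% or more; inconclusive = only one of the two met; inactive = neither met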;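 also: stock transfer was 7.5 nL into about 7.5 µL; 0% = neutral wells and 100% = wells with inactivated enzyme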
Target sequence (P55789 whole entry, looked up): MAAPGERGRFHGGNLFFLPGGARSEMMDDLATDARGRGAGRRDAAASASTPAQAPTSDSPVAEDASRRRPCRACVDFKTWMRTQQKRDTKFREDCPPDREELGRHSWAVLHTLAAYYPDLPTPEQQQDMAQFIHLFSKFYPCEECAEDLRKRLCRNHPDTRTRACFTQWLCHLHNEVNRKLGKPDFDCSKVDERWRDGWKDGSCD
LANA-H2B inh – blocks KSHV LANA binding to histone H2A/H2B | Q9QR71 | cell-free LANA-H2A/H2B peptide, fluorescence polarization | inhibition, % (test concentration not listed) | hit rate 0.6% among 320,000 | AID 2629; in the data active = inhibition mostly above about 10%, no sharp cut-off; inactive = mostly below about 6.7%;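 also: stock transfer was 7.5 nL into about 10 µL; 0% = median of vehicle wells and 100% = median of positive control wells; one replicate is shown; the record names a cut of 25% in any replicate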
Ecoli rRNA inh – inhibits bacterial ribosomal RNA function over humanized ribosomes | E. coli WT GFP vs humanized-ribosome RFP mutants, fluorescence, 24 h; hits give low values; DMSO median 0, no signal -100 | GFP signal change (wild-type ribosome), % (test concentration not listed) | hit rate 1.6% among 350,000;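 active = significant combined selectivity score with lowered wild-type GFP, culture density cut under 30%, mutant RFP and density less affected; inactive = any of these conditions unmet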; also: one replicate is shown; some compounds called inactive have numbers as strong as hits
Calb FLC – C. albicans growth modulation with fluconazole; C. albicans CaCi-2 (fluconazole-resistant clinical isolate) + fluconazole, Alamar Blue growth, 48 h; growth inhibition, % (concentration not given with the values); hit rate 0.57% among 300,000;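 active = most replicates above 75%; inconclusive = exactly half above 75%; inactive = most below 75%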;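 also: all wells also contain fluconazole at 8 µg/ml as a sub-toxic cotreatment; 0% = median of DMSO wells and 100% = median of geldanamycin control wells; wells of about 8 µL received 7.5 nL stock; the first replicate is given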
Beta2AR agonist – activates human beta-2 adrenergic receptor causing internalization; hit rate 0.43% among 340,000; Am2.2-beta2AR cells, FAP receptor internalization, flow cytometry; reference of the scale not given here; P07550; response, % (concentration not given with the values);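 active = response above a set limit, near 3 SD of response in nonfluorescent compounds, cut at about 42% in these data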;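 also: stock transfer was 100 nL into about 11 µL; a reference agonist was the positive control; negative values mostly stem from fluorescent compounds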
Target sequence (P07550 whole entry, looked up): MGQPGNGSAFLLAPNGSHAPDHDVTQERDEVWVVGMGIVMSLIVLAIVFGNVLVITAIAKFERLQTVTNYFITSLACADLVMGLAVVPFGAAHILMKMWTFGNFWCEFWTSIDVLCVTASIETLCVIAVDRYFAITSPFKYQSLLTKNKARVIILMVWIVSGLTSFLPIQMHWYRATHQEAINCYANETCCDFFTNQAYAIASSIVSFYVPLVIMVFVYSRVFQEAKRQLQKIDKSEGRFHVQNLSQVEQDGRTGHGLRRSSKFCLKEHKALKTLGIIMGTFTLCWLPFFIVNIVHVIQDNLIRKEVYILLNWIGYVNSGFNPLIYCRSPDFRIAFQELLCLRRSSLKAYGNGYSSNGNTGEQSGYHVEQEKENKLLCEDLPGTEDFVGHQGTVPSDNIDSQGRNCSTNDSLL
Ecoli rRNA inh OD600 – also measured in Ecoli rRNA inh; calls as there; OD600 change, %; measured here: OD600 growth;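 optical density of the mix in the first replicate; 0 = DMSO median and -100 = no signal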
Ecoli rRNA inh RFP – recorded beside Ecoli rRNA inh, whose call it bears; RFP signal change, %; measured here: RFP humanized mutant strains;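 first replicate; 0 = DMSO median and -100 = no signal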
* = called active by the depositor; ? = inconclusive; nt = no result given. Not all compounds are listed, so the mix of outcomes need not match the whole.

SMILES	Bfl-1 A1 inh	T cruzi inh	Beta apoptosis	ALR inh	LANA-H2B inh	Ecoli rRNA inh	Ecoli rRNA inh OD600	Ecoli rRNA inh RFP	Calb FLC	Beta2AR agonist
CCOC(=O)N(c1ccccc1)P1(=S)OCCO1	-0.9	-5	-5	-1	1.1	nt	nt	nt	-2	-1
C=COCCn1c(C)c(C(C)=O)c2cc(O)ccc21	-0.3	15	-4	nt	-1.5	-12	-5	-3.0	24	2
COP(=O)(OC)C(Nc1ccccn1)c1ccccc1 (configuration not stated)	0.5	-2	-5	-4	-1.1	9	14	-2.2	25	1
CC(NC(=O)Cc1cccc2ccccc12)C(=O)N1CCC(=O)CC1 (configuration not stated)	-0.2	3	5	-4	0.9	-6	9	-2.2	-17	-5
CCOC(=O)C1SC2(C(F)(F)F)CC1(O)c1c(C)cc(C)nc1O2 (configuration not stated)	0.3	11	-7	57	1.8	nt	nt	nt	11	4
O=C1NC(=S)NC(=O)C1C1CCCCC1	0.3	1	-1	3	15*	14	15	4.1	0	-9
CNC(=O)NC(O)C(Cl)(Cl)Cl (configuration not stated)	-0.8	-4	-1	-4	-1.2	22	14	-0.2	26	-3
CC(C)c1ccc(O)c(CN2CCN(c3ccccc3)CC2)c1	-0.1	-11	1	nt	1.6	nt	nt	nt	-23	-7
COc1cc(C)c(CN2CC=C(c3ccc(F)cc3)CC2)cc1C	-1.3	31	-1	-6	-0.9	-10	-11	-3.2	-3	-9
COC(=O)C1=C(c2ccc(Cl)c(C(F)(F)F)c2)C[C@@H]2CC[C@H]1N2C(=O)N1CCC(C)CC1	0.6	nt	-6	9	-4.6	nt	nt	nt	nt	14
O=C(CN1CCCCC1)c1ccc(F)cc1	0.3	-12	-2	-3	-0.7	14	17	3.3	1	5
Cc1ccc2c(c1)CC1(CN2C)C(=O)NC(=O)N(c2cc(C)ccc2C)C1=O (configuration not stated)	0.7	15	-2	1	-1.1	nt	nt	nt	12	5
CCCOP(=O)(O)c1c([N+](=O)[O-])cc(C(F)(F)F)cc1[N+](=O)[O-] (tested in a mixture with another compound)	-0.5	-14	2	-12	-0.9	8	5	1.9	-1	-6
OCC1(CO)COC(c2cccnc2)N1 (configuration not stated)	-0.2	-4	-3	-12	-1.2	nt	nt	nt	-11	8
O=C(c1ccc(Cl)cc1)N1CCC2(CC1)OCCO2	-0.6	-21	-6	-4	-3.4	8	7	3.0	-7	3
c1ccc2sc(NC3=NCCN3)nc2c1	-1.2	-15	0	-2	-2.9	10	13	1.9	0	0
Cc1ccc(-n2c(C)cc(/C=C3/C(=O)NC(=O)N(Cc4ccco4)C3=O)c2C)cc1	-0.2	2	-2	18	1.7	nt	nt	nt	23	8
O=C(COc1ccccc1)N1CCN(CCN2C(=O)c3cccc4cccc(c34)C2=O)CC1	-0.5	5	6	4	-1.3	11	22	0.8	-6	-7
CC1N(O)C2CCCCCC2N1O (configuration not stated)	0.5	-14	-6	13	6.3	nt	nt	nt	-2	-1
O=c1cc(C(F)(F)F)c2cc3c4c(c2o1)CCCN4CCC3	0.5	29	4	-1	4.5	nt	nt	nt	0	-942
COc1ccc(N2C(=O)/C(=C/c3ccco3)C(=O)NC2=S)cc1	0.4	-3	2	98*	0.3	2	7	0.1	1	12
CCN1C[C@]2(CO)CC[C@H](OC)[C@@]34C5C[C@H]6[C@H](OC)C5[C@](O)(C[C@H]6OC)[C@@](O)(C(OC)C23)[C@@H]14 (some centres not stated)	0.4	-14	-3	-9	0.6	nt	nt	nt	2	-6
CC[N+]12CCC(CC1)C(C(O)(c1ccccc1)c1ccccc1)C2 (configuration not stated)	-0.3	-14	-20	6	0.1	18	1	-9.4	-6	-1
COc1ccc(CC(C)NC2CCCCCC2)cc1 (configuration not stated)	0.8	8	-4	-7	-3.7	0	5	0.8	-16	2
COc1ccc(N2C(=O)NC(=O)/C(=C/c3cccc(OC(=O)c4cccs4)c3)C2=O)cc1Cl	-0.7	-21	-5	7	-3.8	-10	7	-3.7	6	nt
COc1ccc(C(=O)C2CCCN(Cc3cccc(C)n3)C2)c(OC)c1 (configuration not stated)	0.3	-25	6	nt	-1.3	4	4	-0.9	-34	-6
Cc1ccc2cccc(OC(=O)N3CCCC3)c2n1	-0.3	-4	-9	-5	-0.3	nt	nt	nt	-22	-4
CCCCn1c(=O)c(C(=O)Nc2ccsc2C(=O)OC)c(O)c2ccccc21	0.5	-9	-2	2	-3.5	nt	nt	nt	2	12
CCCN1CCC[C@@H]2Cc3[nH]ncc3C[C@H]21	0.2	4	-4	-15	-8.4	nt	nt	nt	-2	-7
Cc1c(CC(=O)N2C[C@H]3C[C@@H](C2)c2cccc(=O)n2C3)c(=O)oc2cc(O)c(Cl)cc12	0.8	3	-5	-11	-9.5	nt	nt	nt	6	-1
COC(=O)C1=C(c2ccc(F)cc2OCc2ccccc2)C[C@@H]2CC[C@H]1N2C	0.5	nt	-2	-3	5.0	-5	-10	-1.6	nt	-1
CC(=NCCC1=CCCCC1)c1c(O)[nH]c(=O)[nH]c1=O	-0.2	-43	-5	-8	3.4	nt	nt	nt	4	8
COc1ccc(CN2CCN(Cc3ccccc3F)CC2)cc1	0.5	44	nt	-1	-0.3	4	8	3.1	-3	-4
CCC(C)N1C(=O)NC(=O)C2(Cc3cc(C)ccc3N(C)C2)C1=O (configuration not stated)	-0.1	-20	-1	4	-11	nt	nt	nt	1	0
Cc1ccc(C2CC3CCC(C2)N3Cc2ccccc2F)cc1 (configuration not stated)	nt	41	nt	nt	nt	-4	-1	-1.6	-12	7
COc1cccc(/C=C2\N=C(c3cncc(Br)c3)OC2=O)c1	-0.4	-2	-11	-1	3.3	2	10	-12	-14	2
COc1ccc2[nH]cc(CCNCc3cccnc3)c2c1	-0.7	-5	3	-4	1.1	20	16	1.5	8	-1
O=C(Cc1ccccc1)OCC(=O)c1ccccc1	1.2	-14	-3	-12	-15	8	2	4.7	5	8
CC(Cc1ccccc1)NC(=O)NC(C)Cc1ccccc1 (configuration not stated)	0.1	3	-3	2	-1.0	nt	nt	nt	-17	6
CC(=O)Nc1ccccc1C(=O)OCC(=O)c1cccc2ccccc12	-0.3	-36	4	3	2.1	nt	nt	nt	-6	3
O=C(CCNC(=O)N1C[C@H]2C[C@@H](C1)c1cccc(=O)n1C2)Nc1cccc(Cl)c1	0.9	-11	nt	-2	4.2	nt	nt	nt	-4	-9
CCOc1ccccc1NC(=O)N1CCC2(CC1)OCCO2	0.2	-17	0	-1	-2.4	nt	nt	nt	-6	12
O=C(c1ccc2c(c1)OCO2)C1CCCN(Cc2c(F)cccc2Cl)C1 (configuration not stated)	-0.2	18	-9	-3	1.3	-34	-45	-6.6	-1	7
Cn1c(O)c(C(c2ccccn2)c2c(O)n(C)c(=S)n(C)c2=O)c(=O)n(C)c1=S	0.4	1	-12	nt	5.3	nt	nt	nt	-3	6
CCn1c(P(C)(=O)O)nc2ccccc21	0.4	-4	-6	nt	-0.5	nt	nt	nt	1	10
CCN(CC)c1ccc(CC2C(=O)N(C)C(=O)N(C)C2=O)cc1	0.1	-3	-10	99*	-2.7	nt	nt	nt	-5	11
CCCC1(CCC)C(=O)NC(=Nc2ccc(C)cc2)NC1=O	1.2	-12	8	-2	4.4	8	7	-1.7	-32	nt
COC(=O)C1=C(c2ccc(S(C)(=O)=O)cc2)C[C@@H]2CC[C@H]1N2C(=O)N1CCC(O)CC1	1.0	-21	-7	-2	-1.7	10	16	4.0	-10	0
CCOC(=O)C1(CCc2ccccc2)CCN(C(C)CSC)CC1 (configuration not stated)	0.4	-2	1	nt	1.2	-4	-4	-0.5	-1	-2
NCCc1ccc(S(=O)(=O)F)cc1	0.9	nt	2	-16	0.9	-1	12	-1.5	nt	-3
Cc1ccccc1-[n+]1c(-c2ccccc2)cc(-c2ccccc2)cc1-c1ccccc1	0.9	41	100*	-10	-0.9	-55	-80	-23	112*	-3
Fc1c(F)c(F)c(N2CCNCC2)c(F)c1F	0.4	-5	1	-6	3.6	4	5	0.6	-29	0
O=C(N/N=C/c1c(O)n(Cc2ccccc2)c(=O)[nH]c1=O)c1ccccc1O	-1.9	-1	-6	56	-15	nt	nt	nt	?	-6
Cc1cccc(-n2c(O)c(/C=N/NC(=O)c3ccncc3)c(=O)[nH]c2=O)c1	0.3	-14	-1	-1	-0.6	24	10	1.0	-2	5
Cc1ccc2nc(-c3ccncc3)cc(C(=O)N3CCC4(CC3)OCCO4)c2c1	-0.1	25	-8	-3	1.5	nt	nt	nt	-3	2
CCN(CC)c1ccc(CN2CC=C(c3ccc(F)cc3)CC2)cc1	0.7	44	7	56	1.3	nt	nt	nt	2	-14
C#C[C@]1(O)[C@H](O)CC2C3CC[C@H]4C[C@@H](O)CC[C@]4(C)C3CC[C@@]21C (some centres not stated)	-0.4	nt	-3	1	0.3	3	-9	1.1	nt	nt
COc1ccc(-n2c(O)c(C=NCCCn3ccnc3)c(=O)[nH]c2=O)cc1	0.1	-14	-1	-4	2.2	nt	nt	nt	30	-1
CC(C)(C)c1ccc(OC(=O)N2CCCCC2)cc1	0.0	22	-3	2	-2.0	-6	-10	-2.4	11	24
Clc1ccccc1NC1=NCCCS1	0.2	-17	-7	2	-2.6	5	13	-5.6	-8	-4
The listing continues:
SMILES	Bfl-1 A1 inh	T cruzi inh	Beta apoptosis	ALR inh	LANA-H2B inh	Ecoli rRNA inh	Ecoli rRNA inh OD600	Ecoli rRNA inh RFP	Calb FLC	Beta2AR agonist
C[C@H](N)CN1CCc2ccc(Br)cc21	0.5	5	nt	99*	-3.4	-9	-8	1.7	3	10
COC(=O)C1=C(c2ccc(OC)c(OC)c2)C[C@@H]2CC[C@H]1N2C(=O)NC(C)C	0.3	nt	-2	1	-1.1	22	39	-0.2	nt	1
CCC(C)N1C(=O)/C(=C\c2cc3c4c(c2)CCCN4CCC3)C(=O)NC1=S (configuration not stated)	0.3	-14	3	99*	-4.4	7	3	12	-9	-80
Cc1cc(C(=O)C[N+]23CCN(CC2)CC3)c(C)n1-c1ccc(Br)cc1	0.4	-2	-5	nt	-2.8	6	18	-1.2	-10	1
O=C(O)c1[nH]c(=O)[nH]c(=O)c1F	0.0	-8	2	-9	4.3	12	6	-13	3	1
CC(C)CN(CC(C)C)c1ccc(C=C2C(=O)NC(=S)NC2=O)cc1[N+](=O)[O-]	0.8	-6	-10	16	-5.2	nt	nt	nt	7	10
Cc1ccc(C(C)C)c(OCC(=O)N2CCN(CC(=O)N3CCOCC3)CC2)c1	0.4	nt	1	nt	-2.2	3	-3	4.0	nt	1
C/C(=N\N1CCN(C)CC1)c1c(O)[nH]c(=O)[nH]c1=O	1.0	-9	-8	-2	1.4	nt	nt	nt	-6	13
COc1ccc(N2C(=O)NC(=O)/C(=C/c3ccc(N4CCOCC4)cc3)C2=O)cc1	2.8	-3	-6	15	2.2	12	5	3.3	-8	nt
